# Choline anaer gr – growth inhibitors of anaerobic choline-fed gram-negatives, minimal medium, absorbance. calls only. actives 0.2% (n = 55,000). Gram-negative bacterium anaerobic choline minimal medium; stronger effect = lower value; many inactives read as strong as hits in the columns shown;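 active means growth z-score on choline under -2 at 7 or 20 h with little or no fall on glycerol, limits in tiers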;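 further: stock transfer was 300 nL into about 50 µL; the organism is E. coli; final concentration not given here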
# Choline anaer gr early – second read-out of Choline anaer gr, no call of its own (marks repeat the call); z-score; measured here: choline growth z-score, timepoint 1;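 score of optical density at 7 h as mean of two plates; lower means less growth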
# Starred values were filed as active, the others as inactive; i = inactive; & = joins results of further samples. Not all compounds are listed, so the mix of outcomes need not match the whole.
SMILES,Choline anaer gr,Choline anaer gr early
CCC(C)NC(=O)c1ccc2c(=O)n(C3CC3)c3nn(CC(N)=O)c(=O)n3c2c1 (stereo not given),i,-0.97
CCC(C)NC(=O)Cn1cnc2onc(-c3ccc(Cl)cc3)c2c1=O (stereo not given),i,-0.16
O=C(NCc1ccc(F)cc1)C1CCCN(C(=O)C2Sc3ccccc3NC2=O)C1 (stereo not given),i,0.21
CCOc1c(C)cnc2c1c(=O)n(CC(=O)NC1CCCCC1)c(=O)n2C,i,-0.45
COc1cc(OC)c(NC(=O)CCn2cnc3ccccc3c2=O)cc1Cl,i,-0.2
CCC(C)NC(=O)Nc1cc2c(cc1N1CCOCC1)n(C)c(=O)n2C (stereo not given),i,1.03
Cc1ccnc(NC(=O)c2nc(-n3cnnc3)ccc2Br)c1,i,-1.99
O=C(Nc1ccc(Cl)cc1)N1CCN(Cc2cc(=O)n3nc(-c4ccccc4)sc3n2)CC1,i,-0.1
CCOc1c(OC)cccc1C1Nc2ccc(Cl)cc2[C@H]2OCCC[C@@H]12 (stereo not given in full),i,-0.46
Nc1nc(NCC2CCC(CNS(=O)(=O)c3cccc4ccccc34)CC2)nc2ccccc12 (stereo not given),i,-1.46
COCCCN[C@H]1CS(=O)(=O)C[C@@H]1S(=O)(=O)c1ccc(OC)cc1,i,0.88
Cc1cc(C)c2c(c1)[C@H]1OCC[C@H]1C(c1cccc(O)c1)N2 (stereo not given in full),i,-0.93
Cc1cc(C#N)cc(C)c1Oc1nc(Nc2ccc(C#N)cc2)nc(N)c1Br,i,0.5
Cc1cccc(-n2nnc(-c3nc(-c4ccccc4C)no3)c2C)c1,i,0.22
CC(=O)Nc1nc2ccc(CCC(=O)NCC3CCN(Cc4ccc(C)cc4)CC3)cc2s1,i,-0.54
COc1ccc(NC(=O)CSc2nnc(-c3ccncc3)o2)c(OC)c1,i,0.14
Cc1oc2ncnc(N3CCCC(C(=O)NCc4ccccc4Cl)C3)c2c1C (stereo not given),i,-0.51
COc1ccc(-c2coc3cc(OCC(=O)O)ccc3c2=O)cc1,i,0.64
C=CCn1c(=O)c2ccc(C(=O)NC(C)C)cc2n2c(=O)[nH]nc12,i,0.76
Cc1ccc2nc(N3CCN(C(=O)C(C)(C)C)CC3)c(-c3noc(-c4ccccc4)n3)cc2c1,i,1.32
CCOc1ccc(NC(=O)Cn2c3ccccc3n3c(=O)cc(-c4ccccc4)nc23)cc1,i,-1.01
COc1cccc(NC(=O)c2c(-c3cccnc3)noc2C)c1,i,-0.3
CCOc1ccc(-c2nc(Cn3nnc(C(=O)NCc4ccc(OC)c(OC)c4)c3N)c(C)o2)cc1,i,0.02
Cc1[nH]c(C)c(S(=O)(=O)N2CCC(C(=O)NC3CCCC3)CC2)c1C(=O)N1CCCC1,i,-2.28
NCCCS(=O)(=O)O,i,-1.75

# (more compounds)
SMILES,Choline anaer gr,Choline anaer gr early
CN(C)c1nc(N)c(C(=O)N=C(N)N)nc1Cl,i,0.07
Cc1cccc(-c2cnc(Nc3cccc(C(=O)NC4CCCc5ccccc54)c3)nc2)c1 (stereo not given),i,0.04
CCOc1nc2cccnc2n(CC(=O)NCCOC)c1=O,i,-0.11
CC(C)NC(=O)Cn1c(=O)c(=O)n(Cc2ccncc2)c2ncccc21,i,0.37
O=C(c1cc2ccccc2[nH]1)N1CCN(c2nc3cc(Br)ccc3n3cccc23)CC1,i,0.15
Cc1[nH]nc2c1C(c1ccc(F)cc1F)CC(=O)N2 (stereo not given),i,0.08
O=S(=O)(c1ccc(C2CCCCC2)cc1)N1CCCN(c2nc3cccnc3s2)CC1,i,0.05
Cc1cccc(N2CCN(C(=O)CN3C(=O)CCn4nc(-c5cn(C)c6ccccc56)cc43)CC2C)c1 (stereo not given),i,-1.12
CC1(CNS(=O)(=O)c2ccc(F)c(Cl)c2)CCOCC1,i,0.05
CCN(CC)CCNC(=O)c1ccc(CSc2nc3cccnc3n2Cc2ccccc2)cc1,i,-1.38
NC(=O)C(c1ccccc1)(c1ccccc1)C1CCN(CCc2ccc3c(c2)CCO3)C1 (stereo not given),i,0.41&0.23
CC(C)(O)c1ccccc1CC[C@@H](SCC1(CC(=O)O)CC1)c1cccc(/C=C/c2ccc3ccc(Cl)cc3n2)c1,i,0.51&1.2
COc1ccccc1OC(C)C(=O)NCCc1csc(-c2ccccc2)n1 (stereo not given),i,0.11
COc1ccc(-c2cc3n(n2)CCCN(C(=O)NCC2CCCO2)C3)cc1OC (stereo not given),i,0.53
CC1CCN(C(=O)CN2CC(C)Sc3ccccc32)CC1 (stereo not given),i,0.04
Cc1cc(C)cc(OCc2nc3c4ccccc4ncn3n2)c1,i,1.49
O=C1C(c2ccccn2)=[N+]([O-])c2ccccc21,i,-0.23
CCCc1cc(C2CCCN2Cc2ccccc2OCC)no1 (stereo not given),i,0.21
Cc1ccc(C(=O)N(C)CCc2noc(C(=O)NCc3ccccc3)n2)cc1,i,-0.4
COc1cc(C(=O)OCCCN2CCCN(CCCOC(=O)c3cc(OC)c(OC)c(OC)c3)CC2)cc(OC)c1OC,i,-0.58&0&-0.88&0.54&1.24
O=S(=O)(O)NC1CCCCC1,i,0.56&-0.54
O=C(c1cc2cccnc2n(Cc2ccccc2)c1=O)N1CCCc2ccccc21,i,1.01
Cc1nc2cc(C(=O)N3CCN(c4ccccn4)CC3)ccc2n(C)c1=O,i,0.3
CCOC(=O)CSc1nnc2n1CCN2c1ccc(OC)cc1,i,-0.42
COc1cccc(C(=O)Nc2ccc(N3CCCS3(=O)=O)cc2)c1OC,i,-0.82

# (more compounds)
SMILES,Choline anaer gr,Choline anaer gr early
O=C(CSc1nc(=O)n(Cc2ccncc2)c2c1CCC2)N1CCCC1,i,-0.01
COc1cc2c(cc1OC)C(c1ccc(N)cc1)=NNC(=O)C2,i,0.7
OC(COc1ccc(Cl)cc1)Cn1c(Cc2ccccc2)nc2ccccc21 (stereo not given),i,-0.11
Cn1c(=O)c(-c2noc(CCC(=O)N3CCc4ccccc43)n2)nn(-c2ccccc2)c1=O,i,-1.18
CCCN1CCN(c2nnc(-n3cccc3CN3CCN(c4ccccn4)CC3)s2)CC1,i,1.02
CC(=O)Nc1ccc2c(c1)nc(CN1CCN(C)CC1)n2C,i,0.78
CCOC(=O)c1c(NC(=O)N2CCOc3ccccc32)sc2c1CCCC2,i,-3.29
O=C(CSc1cn[nH]c(=O)n1)NC1CCCCC1,i,-7.47
C=CCn1c(SCC(=O)Nc2ccccc2F)nc2sc3c(c2c1=O)CCC3,i,0.31
CC1CCN(CCCC(=O)c2ccc(F)cc2)CC1,i,0.37&0.37
CC(C)C(=O)N1CCN(c2ccc(Nc3c4c(nc5nc(-c6ccccc6)nn35)CCCC4)cc2)CC1,i,0.82
COc1ccc(-c2[nH]ncc2CN2CCCC2c2cc(C)on2)cc1OC (stereo not given),i,0.34
O=C(Nc1nc2ccc(Cl)cc2s1)c1cccc(-c2noc(C3CCC3)n2)c1,i,0.66
CCOC(=O)CSc1nn(C)c2nc3c(c(=O)n12)C(C)(C)Cc1ccccc1-3,i,0.96
Cc1ccc(S(=O)(=O)N2CCCC2c2cc(C)on2)cc1 (stereo not given),i,1.5
Cc1ccc(-c2noc(Cc3nc(-c4cccc(Cl)c4)cs3)n2)cc1,i,1.36
CCOc1ccc(-c2nonc2NC(=O)COc2ccccc2)cc1OCC,i,0.7
Cc1ccc(NC(=O)c2onc(C)c2Cl)cc1,i,0.52
CCc1nc(CC)n2c(=O)n(C)nc2c1C,i,0.47
CCCCc1ccc(NC(=O)CN2C(=O)CCSc3ccccc32)cc1,i,0.98
O=C1C(=O)N(C2CCN(C(=O)c3ccc(F)cc3)CC2)CCN1Cc1cccc(F)c1,i,-0.03
COc1ccc(C2CC(=O)c3cnc4c(-c5ccc(F)cc5)c(C)nn4c3C2)cc1 (stereo not given),i,0.19
COc1cccc(NC(=O)N2CCN(C(=O)c3nsc4ccccc34)CC2)c1,i,-0.45
NC(=O)c1ncn([C@@H]2O[C@H](CO)[C@@H](O)[C@H]2O)n1,i,-1.71&-1.49&-2.28
Cc1ccc(C)c(OCC(O)Cn2c(C3CC(=O)N(Cc4ccccc4)C3)nc3ccccc32)c1 (stereo not given),i,-0.42

# Next entries.
SMILES,Choline anaer gr,Choline anaer gr early
CCS(=O)(=O)c1nc2ccc(NS(=O)(=O)c3cc(Cl)ccc3OC)cc2s1,i,-0.15
Cc1csc(NC(=O)COc2ccccc2-c2nc(C)no2)n1,i,0.79
Cc1cc(OCc2nc(CC(=O)Nc3nnc(CC(C)C)s3)cs2)ccc1Cl,i,0.69
Cc1cc(C(=O)CSc2nnc(CN(c3ccc(F)cc3)S(C)(=O)=O)n2C)c(C)n1C1CC1,i,0.62
O=C(NC1CC1)C1CCN(c2ccc(Sc3ccc(Br)cc3)nn2)CC1,i,1.02
CCOc1ccc(Cn2c(=O)c3sccc3n3c(=S)[nH]nc23)cc1OCC,i,0.84
CCOC(=O)C1CCCN(C(=O)CCc2c(C)nc3c(c(C)nn3-c3ccc(C)c(C)c3)c2C)C1 (stereo not given),i,0.74
COCCNS(=O)(=O)c1cc(-c2nc(C)cs2)n(CC(=O)N2CCCCC2)c1,i,-0.02
CC(=O)N1CCN(CCOc2ccc(C3CCN(C4=Nn5c(nnc5C(F)(F)F)CC4)CC3)cc2)CC1,i,0.76
COc1cccc(C(=O)N2CCN(c3nc4ccc(F)cc4s3)CC2)c1,i,0.24
COc1ccc2[nH]cc(CCNc3ccc(S(=O)(=O)C(C)C)nn3)c2c1,i,0.55
Clc1ccccc1CSc1nc2ncccc2[nH]1,i,0.24
Cc1c(NS(=O)(=O)c2ccc(Br)s2)c(-n2cnnc2)nn1C,i,-1.22
COc1ccc(NC(=O)C2=C(C)C(=O)OC23CCN(S(C)(=O)=O)CC3)c(OC)c1,i,0.55
CCOC(=O)C1CCCN(CC(=O)Nc2cc3c(cc2C)n(C)c(=O)c(=O)n3C)C1 (stereo not given),i,0.21
O=C(NCc1ccco1)C1CCN(c2cncnc2N2CCCCC2)CC1,i,0.61
O=C(Nc1ccc(F)cc1)N1CCN(Cc2nc3cc(C(=O)N4CCCC4)ccc3o2)CC1,i,0.41
Cc1nc(-c2cc(NC(=O)Cc3ccc(Br)cc3)c(C)s2)no1,i,-0.25
Cc1nc(-c2cc3ccccc3nc2N2CCN(C(=O)C3CC3)CC2)no1,i,0.88
CCCn1c(C2CCN(S(=O)(=O)c3cnn(CC)c3)C2)nc2cccnc21 (stereo not given),i,0.53
Clc1ccc(-c2csc3ncnc(NCc4ccccn4)c23)cc1,i,-0.19
CN(C)c1ncnc2c1c(-c1ccccc1)cn2-c1ccc(Cl)cc1,i,1.05
C=CCNC(=O)c1cc2sccc2n1C,i,-2.31
COc1ccccc1-c1nn2c(-c3ccc4ccccc4n3)nnc2s1,i,0
CCOC(=O)c1c(-c2ccccc2)csc1NC(=O)c1cc2ccccc2c(=O)s1,i,-0.92

# Other structures follow.
SMILES,Choline anaer gr,Choline anaer gr early
CCNCc1ccc(-c2ccc(Cl)cc2)o1,i,-0.43
CNc1ncnc2c1cnn2-c1ccc(F)cc1,i,-0.25
CC1(C(=O)NC2CCCCC2)Cn2c(c(-n3cccc3)c3ccccc32)C(=O)N1Cc1cccnc1 (stereo not given),i,0.86
Cn1nc(-c2ccccc2F)c2cc(C(=O)OCc3ccc4c(c3)OCO4)sc21,i,1.33
COc1ccc(NS(=O)(=O)c2ccc(Cc3cc(C)n[nH]c3=O)cc2)c(OC)c1,i,-0.49
CC(C)Cn1c(=O)c2ccc(C(=O)NC3CCCC3)cc2n2c(SCC(=O)NC(C)(C)C)nnc12,i,-1.02
CC(C)Nc1ncnc2c1cnn2-c1ccc(Cl)cc1,i,0.74
CC(C)NC(=O)c1nc(-n2cnnc2)ccc1Br,i,-0.3
Cc1cccc(-c2noc(-c3ccccc3NC(=O)C3CC(=O)N(c4ccccc4C)C3)n2)c1 (stereo not given),i,0.22
Cc1ccc(NC(=O)N2CCCC2c2ccc(Cl)cc2)cc1C (stereo not given),i,1.02
CN(Cc1ccccc1)S(=O)(=O)c1cccc(-c2nc(-c3ccccc3)no2)c1,i,0.87
Cc1ccc2c(Cl)c(C(=O)N3CCN(CCc4ccncc4)CC3)sc2c1,i,-0.94
O=C(Nc1ccc2c(c1)OCO2)N1CCCCCC1c1cccs1 (stereo not given),i,-0.33
O=C1CC(c2ccccc2)=Nc2ccccc2N1,i,0.47
CCCNC(=O)Cc1ccc(-n2c(=O)c3ccccc3n(CC(=O)Nc3ccc4c(c3)OCO4)c2=O)cc1,i,-0.13

# 16 successive records already listed:
SMILES,Choline anaer gr,Choline anaer gr early
CN(C)c1ncnc2c1c(-c1ccccc1)cn2-c1ccc(Cl)cc1,i,1.05
C=CCNC(=O)c1cc2sccc2n1C,i,-2.31
COc1ccccc1-c1nn2c(-c3ccc4ccccc4n3)nnc2s1,i,0
CCOC(=O)c1c(-c2ccccc2)csc1NC(=O)c1cc2ccccc2c(=O)s1,i,-0.92
CCNCc1ccc(-c2ccc(Cl)cc2)o1,i,-0.43
CNc1ncnc2c1cnn2-c1ccc(F)cc1,i,-0.25
CC1(C(=O)NC2CCCCC2)Cn2c(c(-n3cccc3)c3ccccc32)C(=O)N1Cc1cccnc1 (stereo not given),i,0.86
Cn1nc(-c2ccccc2F)c2cc(C(=O)OCc3ccc4c(c3)OCO4)sc21,i,1.33
COc1ccc(NS(=O)(=O)c2ccc(Cc3cc(C)n[nH]c3=O)cc2)c(OC)c1,i,-0.49
CC(C)Cn1c(=O)c2ccc(C(=O)NC3CCCC3)cc2n2c(SCC(=O)NC(C)(C)C)nnc12,i,-1.02
CC(C)Nc1ncnc2c1cnn2-c1ccc(Cl)cc1,i,0.74
CC(C)NC(=O)c1nc(-n2cnnc2)ccc1Br,i,-0.3
Cc1cccc(-c2noc(-c3ccccc3NC(=O)C3CC(=O)N(c4ccccc4C)C3)n2)c1 (stereo not given),i,0.22
Cc1ccc(NC(=O)N2CCCC2c2ccc(Cl)cc2)cc1C (stereo not given),i,1.02
CN(Cc1ccccc1)S(=O)(=O)c1cccc(-c2nc(-c3ccccc3)no2)c1,i,0.87
Cc1ccc2c(Cl)c(C(=O)N3CCN(CCc4ccncc4)CC3)sc2c1,i,-0.94

# Compound activity (PubChem)
